Bioassay records (PubChem BioAssay)
PKD1 inh – PKD1 (human) kinase inhibition; PKD1 kinase fluorescence polarization assay; inhibition, %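 (about 10 µM by stock and volumes)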; 200,000 compounds, 0.056% hits;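 active = inhibition of 50% or more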;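 also: controls were vehicle for no effect and a reference inhibitor for full effect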
RGS16-Gao – RGS16-Galphao interaction regulator (human); O15492+P09471; bead-based flow cytometry RGS16-Galphao binding, fluorescence; actives lie on both sides; binding response (% of control), % at 10 µM; 220,000 compounds, 0.38% hits;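 active = below 25% or above 175%, edge rows of some plates excepted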;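 also: Galphao activated by GDP with aluminum fluoride before binding; 100% = wells without compound and 0% = beads without RGS; some results beyond the cut were filed as inactive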
Target sequence (O15492 whole entry, looked up): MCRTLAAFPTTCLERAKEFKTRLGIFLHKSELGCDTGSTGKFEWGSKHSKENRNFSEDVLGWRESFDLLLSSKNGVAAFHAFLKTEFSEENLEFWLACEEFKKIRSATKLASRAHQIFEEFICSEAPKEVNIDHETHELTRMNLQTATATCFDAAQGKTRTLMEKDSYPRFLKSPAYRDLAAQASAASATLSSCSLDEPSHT
Target sequence (P09471 whole entry, looked up): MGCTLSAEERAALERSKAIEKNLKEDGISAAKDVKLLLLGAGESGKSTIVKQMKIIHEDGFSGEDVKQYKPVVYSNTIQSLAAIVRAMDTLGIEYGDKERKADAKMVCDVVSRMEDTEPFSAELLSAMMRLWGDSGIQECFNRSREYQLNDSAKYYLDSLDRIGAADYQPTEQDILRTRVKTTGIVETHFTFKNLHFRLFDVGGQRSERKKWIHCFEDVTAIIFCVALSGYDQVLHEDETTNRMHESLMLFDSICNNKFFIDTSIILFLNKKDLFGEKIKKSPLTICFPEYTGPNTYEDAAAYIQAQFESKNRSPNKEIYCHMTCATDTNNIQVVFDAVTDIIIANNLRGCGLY
INS promoter inh – TRM-6 insulin promoter activity inhibition. TRM-6 cells (human fetal islet line), insulin promoter-eGFP reporter, imaging; reporter expression induced with tamoxifen. inhibition, % at 2 µM. 130,000 compounds, 0.9% hits;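 active = inhibition above the mean plus 3 SD, with well images judged a real hit on visual review, cut at about 60% in these data, passing the limit was not always enough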
GALR2 agonist – GALR2 (human) receptor agonism | AID 803 | 140,000 compounds, 0.48% hits | activation, %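 (tested at 5 µM)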 | GALR2-expressing cells, agonist activation read-out | O43603;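 active = above mean plus 3 SD of all compounds, about 5% in these data, not always enough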;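 also: 0% = vehicle buffer wells and 100% = reference agonist at full effect; tested in CHO reporter cells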
Target sequence (O43603 whole entry, looked up): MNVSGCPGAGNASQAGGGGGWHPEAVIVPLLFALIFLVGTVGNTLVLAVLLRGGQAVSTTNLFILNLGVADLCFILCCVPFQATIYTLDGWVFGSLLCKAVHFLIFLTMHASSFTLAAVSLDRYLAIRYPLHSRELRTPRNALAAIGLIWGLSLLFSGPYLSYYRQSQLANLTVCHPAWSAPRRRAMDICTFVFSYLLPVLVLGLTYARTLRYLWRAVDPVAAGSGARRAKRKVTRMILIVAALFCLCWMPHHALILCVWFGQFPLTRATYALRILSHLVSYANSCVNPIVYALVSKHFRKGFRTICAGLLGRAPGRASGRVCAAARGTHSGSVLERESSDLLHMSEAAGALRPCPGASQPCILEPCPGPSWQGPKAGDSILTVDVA
HSV augment – HSV replication enhancement. HSV replication augmentation in cells, fold increase. maximum fold increase. 220,000 compounds, 0.005% hits. AID 1956;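 active = peak rise of 1.5-fold or more in the series; tested in PC3 cells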;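 also: first round at 10 µM; read as green reporter fluorescence; hits show the peak of a series up to 25 µM; 1 = signal of infected wells without compound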
INS promoter inh cell count – second read-out of INS promoter inh, no call of its own (marks repeat the call); normalized cell count, %; measured here: cell count, toxicity; reference of the scale not given here;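 cells exposed to compound for 48 h; stained nuclei by imaging scaled within each plate; lower means fewer cells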
HSV augment primary fold – further read-out of HSV augment, marked with its call; fold increase; compound at 10 µM; measured here: primary screen fold increase 10 uM; tested in PC3 cells;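 GFP signal in the first replicate; 1 = infected wells without compound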
* marks the source's active call; other numbers are inactive results; i = inactive; . = no result given.

SMILES | PKD1 inh | RGS16-Gao | INS promoter inh | INS promoter inh cell count | GALR2 agonist | HSV augment | HSV augment primary fold
CCC(C)(NC(=O)c1ccccn1)C(=O)NC1CCCCC1 (centres undefined) | 5 | 100 | -64 | 85 | -2.7 | i | 0.88
COc1ccc(OC)c(CNC(=O)c2cc(=O)[nH]c3ccc(S(=O)(=O)N4CCCC4)cc23)c1 | -8 | 97 | 0 | 74 | . | i | 1
O=c1c2ccccc2nc(-c2ccccc2)n1Cc1ccc(Cl)cc1 | -6 | 107 | 40 | 116 | -1.7 | i | 1.1
CCn1c(SCC(=O)NC(C)(C)C)nnc1-c1ccccn1 | -2 | 130 | 53 | 37 | -1.6 | i | 1.1
COc1cc(C2C(C#N)=C(N)Oc3c2ccc2ccccc32)ccc1OCC(=O)Nc1ccc(C)cc1 (centres undefined) | -5 | 99 | 23 | 120 | 0.4 | i | 0.95
O=C(c1ccccn1)N1CCN(S(=O)(=O)c2ccc(F)cc2)CC1 | 4 | 101 | 40 | 137 | . | i | 0.91
CN1c2ccccc2C(C)(C)C12C=Nc1c(ccc3ccccc13)O2 (centres undefined) | 9 | 75 | -29 | 137 | -1.2 | i | 0.95
COc1ccc(N(CC(=O)Nc2ccc3c(c2)OCO3)S(C)(=O)=O)c(OC)c1 | -4 | 72 | 42 | 158 | -1.4 | i | 0.81
CCS(=O)(=O)c1ccc(O)c(NC(=O)Nc2ccccc2)c1 | 3 | 96 | -58 | 95 | -0.9 | i | 1
O=C(N/N=C/c1ccccn1)NC12CC3CC(CC(C3)C1)C2 | . | 104 | . | . | . | i | 0.96
CN1C(=O)CC(N2CCN(C(=O)c3ccccc3)CC2)C1=O (centres undefined) | -12 | 107 | 13 | 113 | -1.0 | . | .
CN1CCN(C2CC(=O)N(c3ccc4c(c3)OCCO4)C2=O)CC1 (centres undefined) | 7 | 104 | 54 | 123 | -0.4 | i | 0.97
OCC1(CCOc2ccccc2)CCN(Cc2ccc3cccc(F)c3n2)CC1 | -6 | 102 | . | . | . | i | 1
O=c1[nH]c2ccc(Cl)cc2c(-c2ccccc2)c1CN1CCOCC1 | 2 | 103 | -9 | 76 | 0.7 | i | 0.8
Fc1ccc(CN2CCCCCCC2)c(F)c1 | -10 | 101 | 23 | 107 | -0.7 | i | 1.1
Cc1cc(C)n(-c2ccc(OCC(=O)O)nn2)n1 | 1 | 105 | -10 | 133 | -1.6 | i | 0.93
C=CCS/C(N)=N\N=C\c1c(O)ccc2ccccc12 | . | 103 | . | . | . | i | 1.1
COc1ccc(OCCOC(=O)c2cccs2)cc1 | -7 | 99 | . | . | -2.5 | i | 0.99
CN(C)c1cc(Nc2ccc(O)cc2)c([N+](=O)[O-])c2nonc12 | . | 90 | . | . | . | i | 0.89
COC(=O)c1sccc1NC(=O)c1cc(C)on1 | -1 | . | 69 | 137 | -1.9 | . | .
Cc1ccc(C(C)C)c(OC(=O)/C=C/c2ccccc2)c1 | -1 | 106 | -27 | 119 | -1.7 | i | 0.99
CC(=O)N1CCC(=O)Nc2ccc([N+](=O)[O-])cc21 | -10 | 106 | 24 | 125 | . | i | 0.91
Cc1c(NC(=O)COC(=O)c2c3c(nc4ccccc24)CCCC3)c(=O)n(-c2ccccc2)n1C | 3 | 101 | 34 | 152 | -2.0 | i | 0.91
COc1ccc(-c2nc(CC(=O)O)cs2)cc1OC | 1 | 104 | 43 | 104 | -2.0 | i | 0.97

3 entries already listed, arranged by the value under GALR2 agonist, low to high:
molecule | GALR2 agonist
Cc1c(NC(=O)COC(=O)c2c3c(nc4ccccc24)CCCC3)c(=O)n(-c2ccccc2)n1C | -2.0
CN1CCN(C2CC(=O)N(c3ccc4c(c3)OCCO4)C2=O)CC1 (centres undefined) | -0.4
COc1cc(C2C(C#N)=C(N)Oc3c2ccc2ccccc32)ccc1OCC(=O)Nc1ccc(C)cc1 (centres undefined) | 0.4

In the list so far, five contain an aryl methoxy group.
SMILES | PKD1 inh | RGS16-Gao | INS promoter inh | INS promoter inh cell count | GALR2 agonist | HSV augment | HSV augment primary fold
COc1ccc(OC)c(CNC(=O)c2cc(=O)[nH]c3ccc(S(=O)(=O)N4CCCC4)cc23)c1 | -8 | 97 | 0 | 74 | . | i | 1
COc1cc(C2C(C#N)=C(N)Oc3c2ccc2ccccc32)ccc1OCC(=O)Nc1ccc(C)cc1 (centres undefined) | -5 | 99 | 23 | 120 | 0.4 | i | 0.95
COc1ccc(N(CC(=O)Nc2ccc3c(c2)OCO3)S(C)(=O)=O)c(OC)c1 | -4 | 72 | 42 | 158 | -1.4 | i | 0.81
COc1ccc(OCCOC(=O)c2cccs2)cc1 | -7 | 99 | . | . | -2.5 | i | 0.99
COc1ccc(-c2nc(CC(=O)O)cs2)cc1OC | 1 | 104 | 43 | 104 | -2.0 | i | 0.97

(listing goes on)
SMILES | PKD1 inh | RGS16-Gao | INS promoter inh | INS promoter inh cell count | GALR2 agonist | HSV augment | HSV augment primary fold
COc1ccc(CNc2nc(-c3cccnc3)nn2S(C)(=O)=O)cc1 | 0 | 104 | . | . | . | i | 0.96
CC(C)c1cc(C(=O)Nc2cc(Br)ccc2O)no1 | -9 | 101 | 0 | 96 | -0.8 | i | 0.64
COC(=O)c1c(N)c2ccccc2[nH]c1=O | 6 | 100 | . | . | -1.6 | i | 1
COC(=O)c1cc(C(=O)Cc2ccccc2)c[nH]1 | -4 | 101 | 0 | 77 | . | i | 0.96
O=C(CN1CCC(NC(=O)c2cccc(F)c2)CC1)NCc1cccs1 | 6 | 102 | . | . | . | i | 1.1
CN(C)c1ccc(P(=O)(OCc2ccccc2)C(O)c2ccccc2F)cc1 (centres undefined) | . | 112 | . | . | . | i | 0.83
COc1ccccc1OCC(=O)NCC1CCCCC1 | -12 | 104 | 48 | 123 | -1.5 | i | 0.88
O=C(COC(=O)Cc1cccc(C(F)(F)F)c1)Nc1ccc2c(c1)OCCO2 | -13 | 92 | 5 | 80 | -1.6 | i | 1
COc1ccc(C2N(Cc3ccccc3)CCN2Cc2ccccc2)cc1[N+](=O)[O-] | 4 | 94 | -6 | 105 | . | i | 0.75
CCN(CC)S(=O)(=O)c1cc(C(=O)Nc2ccc(Cl)cn2)ccc1C | 6 | 99 | -18 | 116 | -0.3 | i | 0.96
Cc1ccc(NC(=O)Cc2sc(C)nc2-c2ccc(C)cc2)cc1 | -3 | 97 | . | . | 0.7 | i | 0.99
CN(C)S(=O)(=O)N1CCN(C(=O)c2ccccc2)CC1 | 1 | 102 | -9 | 121 | -5.2 | i | 0.87
CCN(CC)CCC(c1cc(OC)c(OC)c(OC)c1)c1c(O)cc(OC)cc1OC (centres undefined) | . | 91 | . | . | . | i | 0.83
Cc1cccc(NC(=O)CSc2ccc(C(N)=O)cc2[N+](=O)[O-])c1C | 4 | 94 | 8 | 113 | -0.1 | i | 0.95
CCOC(=O)C1=C(C)N=C2SC(C(=O)OC)=CC(=O)N2C1c1cccc(OC)c1 (centres undefined) | -3 | 101 | -20 | 118 | -3.2 | i | 0.92
CSc1nc(O)c(C2OC(=O)c3ccccc32)c(=O)[nH]1 (centres undefined) | -5 | 100 | 36 | 62 | -1.2 | i | 0.98
CCC(=O)c1cc2c(C)cc(=O)oc2c(C)c1O | 10 | 104 | . | . | 0.1 | i | 0.84
Cc1ccc2nc(NC(=O)CN(C)S(=O)(=O)c3cccc4nsnc34)sc2c1 | -2 | 3 | 56 | 147 | -0.6 | i | 0.56
CN1CCN(NC(=O)c2ccc(Br)c(S(=O)(=O)N3CCOCC3)c2)CC1 | 5 | 112 | -15 | 71 | -2.4 | i | 1
Cc1ccc(N=Cc2c(O)n(-c3cc(Cl)ccc3N3CCOCC3)c(=O)c3ccccc23)cc1C | 3 | 97 | -49 | 99 | 0.0 | i | 0.93
Cn1c(CSc2ccccc2)c(C#N)c2ccccc21 | -5 | 99 | 28 | 88 | -1.9 | i | 1.1
CC(C)Cn1cc(C(=O)NCCCOC(C)C)c2c3ccccc3n(C)c2c1=O | 2 | 100 | . | . | 0.2 | i | 0.81
CN(C)S(=O)(=O)c1cc(NC(=O)CSc2ncc(C(F)(F)F)cc2Cl)ccc1Cl | -7 | 111 | -43 | 137 | -0.3 | i | 0.79
Cc1cccc(NS(=O)(=O)c2ccc(C3CCCCC3)cc2)n1 | 4 | 104 | -50 | 149 | -1.0 | i | 0.71
COc1ccc(CCC(=O)Nc2sccc2C#N)cc1 | -2 | 101 | 17 | 105 | . | i | 1
COc1cc2cnncc2cc1OC | -3 | 98 | 41 | 136 | -2.2 | i | 0.8
Cc1ccc(S(=O)(=O)Nc2cnn(-c3ccccc3)c(=O)c2Cl)cc1 | 2 | 106 | 7 | 87 | . | i | 1
O=[N+]([O-])c1ccc(Nc2nc(NC3CCCCC3)nc(N3CCCC3)n2)cc1 | -6 | 157 | -13 | 94 | . | i | 0.85
Cc1nc(Sc2ccc(Cl)cc2)c(C#N)c(C)c1[N+](=O)[O-] | . | 95 | . | . | . | i | 0.82
O=C(CC(=O)Nc1ccccc1C(=O)O)NNC(=O)Cc1ccccc1 | . | 106 | . | . | . | i | 0.94
COC(=O)c1ccc(OC(=O)c2cccnc2)cc1 | 3 | 103 | -43 | 105 | -0.6 | i | 1.1
Cc1c(NC(=O)CN2CCN(C(=O)c3ccco3)CC2)c(=O)n(-c2ccccc2)n1C | 5 | 103 | 37 | 70 | -1.2 | i | 1.2
CS/C(N)=N/N=C/c1c(O)ccc2ccccc12 | . | 103 | . | . | . | i | 0.96
Nn1c(SCC(=O)Nc2ccc3c(c2)OCO3)nnc1-c1cccc(Cl)c1 | -9 | 64 | -12 | 67 | -0.9 | i | 0.81
Cc1ccc(C)c(SCC(=O)NCc2ccco2)c1 | 1 | 99 | 29 | 59 | -0.6 | i | 1.2
CCCCC(C(=O)OCC(=O)c1ccc(OC)cc1)N1C(=O)c2ccccc2C1=O (centres undefined) | -1 | 103 | 14 | 148 | -1.4 | i | 0.69
C=CCNC(=O)/C=C/c1cccs1 | -3 | 78 | 50 | 67 | . | i | 0.88
Cc1ccccc1OCCNCC(C)O (centres undefined) | 3 | 108 | . | . | . | i | 0.9
Cc1cc([N+](=O)[O-])nn1CCCC(=O)N1CCN(c2ccc(F)cc2)CC1 | -8 | 97 | 14 | 106 | -1.3 | i | 0.96
CCCOc1ccc(-c2nnc(N)s2)cc1 | -10 | 103 | -21 | 85 | 0.0 | i | 0.91
CCOC(=O)C1CCN(CC(=O)Nc2cc(S(=O)(=O)N3CCOCC3)ccc2C)CC1 | -4 | 106 | . | . | . | i | 0.97
COc1cccc(C(=O)OCC(=O)c2c[nH]c3ccccc23)c1O | -7 | 100 | . | . | . | i | 0.94
Cc1nnc(Nc2ccc(C(=O)NCCO)cc2)c2ccccc12 | 2 | 100 | . | . | -0.9 | i | 0.95
O=c1c(=NNc2ccccc2Cl)c(=O)c2ccccc12 | -1 | 102 | -90 | 123 | -4.9 | i | 1.2
Cc1ccc(C(C(=O)NCC2CCCO2)N(Cc2ccccc2F)C(=O)Cn2nnc(-c3cccs3)n2)cc1 (centres undefined) | -5 | 83 | 16 | 144 | -2.4 | i | 0.95
O=C(Cn1nnc(-c2ccc(F)cc2)n1)Nc1ccc2c(c1)OCCO2 | -8 | 101 | . | . | . | i | 0.98
Cc1cc(=O)n2nc(-c3ccc(C(F)(F)F)cc3)sc2n1 | -7 | 103 | 25 | 127 | -1.8 | i | 0.91
O=C1C2C3C=CC(C3)C2C(=O)N1c1ccccc1 (centres undefined) | -1 | 104 | . | . | -0.8 | i | 0.99
Cc1cc(C)c(-c2c(O)c3cccc4c3n(c2=O)CCC4)c(C)c1 | -3 | 102 | 50 | 68 | -1.8 | i | 0.93
O=[N+]([O-])c1ccccc1NC(=S)N/N=C/c1ccc(O)c(O)c1 | 10 | 97 | . | . | . | i | 1
O=C(CCc1c[nH]c2ccccc12)N/N=C/c1ccc2c(c1)OCO2 | -1 | 86 | 29 | 136 | . | i | 0.96
CN1CCC(NC(=S)NC2CC2)CC1 | 10 | 101 | 32 | 106 | . | i | 1.1
CCCC(C)NC(=O)c1ccc(OCc2ccc(Cl)cc2)c(OC)c1 (centres undefined) | 2 | 101 | 19 | 82 | 3.5 | i | 0.92
COc1nc2ccc(C)cc2cc1-c1noc(-c2ccccc2)n1 | -5 | 104 | -31 | 63 | -1.3 | i | 1.1
CCOC(=O)c1c(NC(=O)CSc2nnc(C)s2)sc2c1CCC(C)C2 (centres undefined) | -7 | 105 | 20 | 115 | -1.2 | i | 0.88
FC(F)(F)c1cc(Oc2ccccc2)nc(-c2ccccn2)n1 | -18 | 102 | 32 | 81 | -2.9 | i | 0.84
O=C(Cn1ncn2cccc2c1=O)N1CCCCC1 | -11 | 102 | . | . | -0.1 | i | 0.95
CSc1nc2[nH]c3c(c2c2ncnn12)CCCC3 | 2 | 107 | 26 | 108 | -0.3 | i | 0.91
S=c1[nH]nc(-c2ccc(Cl)cc2)n1/N=C/C=C/c1ccco1 | . | 97 | . | . | . | i | 0.89
